Cruzain inh noDet – blocks cruzain activity in detergent-free assay. Potency, µM, inactives show max response, negative = inhibition, actives largely listed as inhibitors. purified cruzain, Z-FR-AMC fluorescence, no detergent. 200,000 compounds, 2.3% hits. P25779; active means well fitted curve in the direction sought with a large enough effect; inconclusive means small, poorly fitted or top-dose-only effect, or another doubt; inactive means no such curve, though single readings can be large; an effect the other way counts as inactive or inconclusive;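 further: plate controls were enzyme without inhibitor for no effect and buffer without enzyme for full effect; nearly all actives have a fitted effect of over 40% in size; top concentration of the series not given in the record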
Target sequence (P25779 123-467 limits assumed): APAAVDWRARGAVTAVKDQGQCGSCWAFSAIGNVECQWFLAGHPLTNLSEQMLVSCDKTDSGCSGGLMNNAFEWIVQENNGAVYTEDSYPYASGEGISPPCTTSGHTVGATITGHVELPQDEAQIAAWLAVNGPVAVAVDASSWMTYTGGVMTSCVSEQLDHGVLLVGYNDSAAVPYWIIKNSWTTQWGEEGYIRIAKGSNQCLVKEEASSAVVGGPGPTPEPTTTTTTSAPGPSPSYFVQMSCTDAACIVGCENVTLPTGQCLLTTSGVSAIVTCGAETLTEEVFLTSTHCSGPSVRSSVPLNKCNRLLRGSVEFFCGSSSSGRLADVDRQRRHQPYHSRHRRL
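Detergent-free condition (0.00005% Triton X-100) in acetate buffer pH 5.5 with DTT. 1.5 nM enzyme and compound were pre-mixed 15 min, then 2 uM Z-FR-AMC substrate added; reaction progress from fluorescence change between first and third reads (60 s).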
NS1 inh – blocks influenza NS1 protein function | S. cerevisiae slowed by influenza A NS1, growth recovery by OD600 | Potency, µM (top dose mostly 46.1 µM), inactives show at the top dose activity, positive = more growth | 270,000 compounds, 0.4% hits | AID 2326; further: actives are rising curves; nearly all actives have a fitted effect of over 50% in size
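S. cerevisiae expressing influenza A NS1, grown in glucose, washed, then diluted 1:100 into pH 6.0 -URA galactose medium with 23 nl compound. Growth recovery read as OD600; NS1-free strain serves as control.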
SARS PLP yeast – inhibitors of SARS-CoV papain-like protease in yeast; S. cerevisiae expressing SARS-CoV PLpro, growth rescue; control for the full effect not named in the record; Potency, µM (highest dose often 32.9 µM), inactives show at the highest dose activity, positive = growth rescue; 330,000 compounds, 0.19% hits; AID 485353; further: 0% is about no effect; nearly all actives have a fitted effect of over 55% in size; growth read by luminescence after 48 h
LASV entry inh – inhibitors of Lassa virus binding or cell entry; AID 540256; 300,000 compounds, 1.2% hits; Lassa virus pseudotype entry inhibition, cell reporter; control for the full effect not named in the record; Potency, µM (series often up to 37.9 µM), without a hit: top-dose activity change, negative = inhibition, actives largely listed as inhibitors; active means well fitted inhibition curve with a large enough effect; inconclusive means small, poorly fitted or top-dose-only effect, or effect the other way; inactive means flat fitted curve, though single readings scatter; tested in HEK293 cells; further: on the % scale 0 is the no-effect control and ±100 the full control effect; nearly all actives have a fitted effect of over 50% in size; luciferase read-out
RE007 growth inh – less growth of the S. pombe RE007 Vpr strain | Potency, µM (highest dose often 92.2 µM), for the others: top-dose activity change, negative = less growth | AID 651644 | 360,000 compounds, 0.21% hits | S. pombe RE007 Vpr strain, BacTiter-Glo ATP luminescence, 24 h; control for the full effect not named in the record; active = well fitted falling curve with a large enough effect; inconclusive = small, poorly fitted or top-dose-only effect; inactive = no such curve, though single readings can be large or run the other way;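 further: on the % scale 0 is the no-effect control and ±100 the full control effect; nearly all actives have a fitted effect of over 50% in size; the assay follows cell death caused by Vpr and the record does not say whether a fall means rescue or toxicity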
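Fission yeast strain RE007, carrying one chromosomally integrated HIV-1 vpr copy, was seeded at OD 0.01 in PMG+AL medium with 23 nL pinned compound. After 24 h at 30 °C and 99% humidity, viability was read by BacTiter-Glo luminescence.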
Cruzain Triton – blocks cruzain activity in presence of Triton detergent | P25779 | purified cruzain, Z-FR-AMC fluorescence, 0.01% Triton | Potency, µM, for the others: max response, negative = inhibition, usual class: inhibitors | 200,000 compounds, 0.43% hits; active means well fitted curve in the direction sought with a large enough effect; inconclusive means small, poorly fitted or top-dose-only effect, or another doubt; inactive means no such curve, though single readings can be large; an effect the other way counts as inactive or inconclusive;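 further: plate controls were neutral wells for no effect and buffer without enzyme for full effect; nearly all actives have a fitted effect of over 40% in size; top concentration of the series not given in the record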
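Enzyme 1.5 nM, Z-FR-AMC 2 uM, NaOAc 100 mM pH 5.5, DTT 5 mM, Triton X-100 0.01%; 15 min RT compound preincubation; kinetic ex360/em450, 60 s delta.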
MARV entry inh – inhibitors of Marburg virus binding or cell entry; Marburg virus pseudotyped entry inhibition, cell reporter; control for the full effect not named in the record; about a third of the inactives were read at about 46 µM; 300,000 compounds, 1.8% hits; Potency, µM (doses to about 37.8 µM), inactives show at the highest dose activity change, negative = inhibition, actives largely listed as inhibitors; AID 540276; active = well fitted inhibition curve with a large enough effect; inconclusive = small, poorly fitted or top-dose-only effect, or effect the other way; inactive = flat fitted curve, though single readings scatter; tested in HEK293 cells; about a fifth of its hits are not listed in these tables; further: on the % scale 0 is the no-effect control and ±100 the full control effect; luciferase read-out
2A StopGo – FMDV 2A StopGo reporter, luciferase signal | AID 1159524 | Potency, µM (highest dose often 57.9 µM), inactives show top-dose signal change, negative = less light | human cells with a luciferase reporter of 2A StopGo recoding; control for the full effect not named in the record | 410,000 compounds, 1.2% hits; active = well fitted falling curve with a large enough effect; inconclusive = small, poorly fitted or top-dose-only effect; inactive = no such curve, though single readings can be large or run the other way; tested in HEK293T cells; further: on the % scale 0 is the no-effect control and ±100 the full control effect; nearly all actives have a fitted effect of over 45% in size; luciferase light after 4 h
Active calls of the source: *; ? = inconclusive; / = no result given; & = joins results of further samples; [ ] = another dose, or the depositor's remark. Unless noted, the call rests on the fitted dose curve; in most records, active means well fitted rising curve with a large enough effect; inconclusive means small, poorly fitted or top-dose-only effect; inactive means no such curve, though single readings can be large or run the other way. Potency means the concentration at half of the fitted maximal effect. This is a random part of the collection. Share with any hit: about 4.7%.

SMILES	Cruzain inh noDet	NS1 inh	SARS PLP yeast	LASV entry inh	RE007 growth inh	Cruzain Triton	MARV entry inh	2A StopGo
O=[N+]([O-])c1cc([N+](=O)[O-])c(Oc2ccc(Br)cc2Br)cc1NN1CCCCC1	/	-10%	0%	/	24%	/	/	-12%
Cc1ccc(C(=O)OCC(=O)N2CCNC2=O)c(C)c1	/	/	-2%	-24%	-1%	/	2%[46.1 µM]	24%
Cc1csc(NC(=O)CSc2sc3c(O)cc(=O)[nH]c3c2C#N)n1	/	15%	11%	13%[46.1 µM]	8%	/	-6%[46.1 µM]	24%
Cc1ccc(-n2c(C)cc(C(=O)CN3CCCCC3)c2C)cc1	-24%	5%	-11%	?	1%	-2.2%	?	36%[activator]
COc1cc2ncc3c(-c4ccccc4)nn(-c4ccc(C)cc4)c3c2cc1OC	?	/	/	3%[46.1 µM]	/	-0.9%	/	0%
CCC(C)c1ccc(Nc2ncccc2C#N)cc1 (configuration not stated)	-4%	-51%	4%	?	-7%	-7.4%	?	35%[activator]
Cc1cccc(C)c1OCCSc1nc2ccccc2n1CC(=O)O	13%	16%	/	?	3%	-6.4%	9%[46.1 µM]	-7%&5%
COC(=O)CSc1ncc(OC)c(OC)n1	3%	-7%	2%	?	-1%	6.5%	6%	-20%
Cc1ccccc1NC(=O)COC(=O)CCC(=O)c1cccs1	/	/	-2%	-15%	3%	/	-26%[46.1 µM]	-15%
CN(C)c1cc[n+](CC(=O)c2cccs2)cc1	/	42%	2%	/	-16%	/	/	-17%
C/C(=N\Nc1nnc(-c2ccccc2)c(-c2ccccc2)n1)c1cccc([N+](=O)[O-])c1	?	-46%	2%	-6%	13%	-5.6%	-24%	20%
NC(=S)N/N=C1\CC(c2ccc3c(c2)OCCO3)Oc2ccc(F)cc21 (configuration not stated)	/	1%	-2%	?	18%	/	?	-26%
O=C(NCC(=O)N1CCCC1)c1ccccc1F	/	4%	-28%	4%	-23%	/	?	37%[activator]
CN(C)c1ccc(CCc2ccc(N)cc2)cc1	/	/	/	-25%[46.1 µM]	11%	/	-27%[46.1 µM]	?
O=C(/C=C/c1ccccc1)Nc1sc2c(c1C(=O)O)CCC2	/	-37%	-2%	/	-30%	/	/	41%[activator]
COc1ccc(/C=C/C(=O)NCC(=O)N/N=C(\C)Cc2ccccc2)cc1	/	5%	0%	?	7%	/	?	15%
CC1CCN(c2nc3c(S(=O)(=O)c4ccccc4)nnn3c3ccsc23)CC1	7%	/	/	6%[46.1 µM]	/	3.3%	/	4%
Cc1cc(C)c2c(NC(=O)CCl)nn(C)c2n1	/	/	11µM*	?	13%	/	?	?
Cc1cccc(C)c1NC(=O)CSc1nnc(C)n1CC1CCCO1 (configuration not stated)	/	7%	0%	4%	18%	/	15%[46.1 µM]	-6%
Cc1ccccc1NC(=O)Cn1c(SCC(=O)Nc2ccc(F)cc2)nc2ccccc21	2%	/	/	-25%[46.1 µM]	/	-1.8%	/	-16%
O=C(Cc1ccc(F)cc1)N[C@@H]1c2ccccc2CC[C@@H]1OCc1ccccc1	/	/	1%	/	7%	/	-2%	-16%
CC(C)C(NS(=O)(=O)c1ccccc1)C(=O)NC1CCCC1 (configuration not stated)	/	6%	2%	-3%[46.1 µM]	-6%	/	29%[46.1 µM]	10%
Cc1cc(C)c(S(=O)(=O)NCCC2CCCN2C)c(C)c1 (configuration not stated)	-5%	-4%	1%	19%	-14%[3.69 µM]	7.4%	-13%	-6%
CC(C)=CCN1CCN(Cc2ccc(C)s2)CC1CCO (configuration not stated)	/	6%	0%	?	14%	/	-9%	-1%
Cc1ccc(C2N3CC4(C)CN2CC(c2ccccc2)(C3)C4=O)cc1 (configuration not stated)	12%	/	/	-17%[46.1 µM]	/	-0.9%	3%[46.1 µM]	0%
CC(C)=CC(=O)OCC(=O)Nc1cc(C)cc(C)c1	/	-3%	0%	-1%	-3%	/	-6%[46.1 µM]	-9%
O=C(c1ccc(F)cc1)N(c1ccccn1)C1CCCCC1	/	-4%	0%	7%[46.1 µM]	0%	/	-4%[46.1 µM]	-4%
COc1cc(SC)ccc1C(=O)Nc1cccc(C2OCCCO2)c1	/	/	-3%	8%	5%	/	?	67%[activator]
Cc1cc(=O)[nH]c(N2CCN(c3ccc(Cl)cc3)CC2)n1	/	/	/	4%[46.1 µM]	16%	/	?	-14%
CNC(=O)CNC(=O)Nc1ccc(C)cc1	/	/	-2%	-1%	3%	/	0%	1%
CCOc1ccccc1-n1c(SCC(=O)Nc2ccccc2C(=O)O)nc2ccccc2c1=O	/	?	-1%	-17%[46.1 µM]	5%	/	?	?
NNC(=O)CS(=O)(=O)CS(=O)(=O)CC(=O)NN	/	6%	0%	-10%	2%	/	20%	-13%
CCn1cc(C(=O)NC(=S)Nc2ccccc2[N+](=O)[O-])cn1	/	8%	/	-29%[46.1 µM]	-15%	/	-1%[46.1 µM]	14%
COc1cc(OC)cc(-c2cc3nc4c(c(N5CCN(c6ncccn6)CC5)n3n2)CCCC4)c1	-24%	-48%	1%	-1%	-1%	-12%	?	/
COc1cccc(/C=C(\CC(=O)O)c2nc3ccccc3s2)c1	/	/	-14%	15%[46.1 µM]	-9%	/	4%[46.1 µM]	0%
O=C(NNC(=S)Nc1ccc(Cl)cc1)c1cccs1	/	-4%	-1%	-11%	11%	/	7%	115%[activator]
COc1ccc(C(=O)Nc2ccc(S(=O)(=O)NC(C)=O)cc2)cc1[N+](=O)[O-]	/	2%	-4%	5%	-20%	/	2%[46.1 µM]	-9%
Cn1c(=O)c2sc3c(c2n(CC(=O)Nc2ccccc2)c1=O)COC(C)(C)C3	/	8%	2%	-18%[46.1 µM]	9%	/	-1%[46.1 µM]	-7%
O=C(NC1=NCCS1)c1cc(-c2cccnc2)nc2ccccc12	/	/	-1%	11%	-6%	/	?	-5%
Cc1ccccc1C(=O)Nc1nnc(S(=O)(=O)N2CCc3ccccc32)s1	22%	/	/	6%[46.1 µM]	/	1.4%	/	-18%
CC(=O)c1ccc(N2CCN(C(=O)c3cc4c(s3)CCCC4)CC2)cc1	/	/	-1%	-18%[46.1 µM]	1%	/	?	4%
COc1cc(C2c3c(oc4ccc(C)cc4c3=O)C(=O)N2c2cc(C)ccn2)cc(OC)c1OC (configuration not stated)	?	9%	0%	/	/	-2.2%	1%	/
CN(C)C1(CNC(=O)COc2cccc(Cl)c2)CCCCC1	-7%	/	/	-16%[46.1 µM]	/	-1.1%	?	-10%
S=C(Nc1ccc(Cl)cc1Cl)Nn1cnnc1	-5%	-29%	-54%	?	-18%	-9.0%	3%	11%
Cc1cc(C2=CC(C)(c3cc(C)oc3C)Nc3nc(C(F)(F)F)nn32)c(C)o1 (configuration not stated)	?	18µM*	-2%	/	/	2.9%	-3%	/
Cc1ccc(C(=O)NC(NCc2ccco2)C(Cl)(Cl)Cl)cc1 (configuration not stated)	0%	7%	5%	10%	11%	-0.5%	-7%	?
CCN1CCN(c2nc3c(S(=O)(=O)c4ccc(Br)cc4)nnn3c3ccsc23)CC1	29%	/	/	15%[46.1 µM]	/	2.8%	/	17%
COC(=O)c1sccc1S(=O)(=O)N(CC(=O)Nc1cc(C)ccc1C)c1ccc(C)c(C)c1	-14%	/	/	?	/	-5.9%	/	-24%
COC(=O)c1cccc(NC(=O)CN2C(=O)C3CCCCC3C2=O)c1 (configuration not stated)	/	/	0%	5%	5%	/	23%[46.1 µM]	-10%
NC(=O)c1ccccc1N=Cc1cccnc1	/	/	/	8%[46.1 µM]	-7%	/	10%[46.1 µM]	17%
Going on with the list:
SMILES	Cruzain inh noDet	NS1 inh	SARS PLP yeast	LASV entry inh	RE007 growth inh	Cruzain Triton	MARV entry inh	2A StopGo
COC(=O)c1cc2occc2n1CC(=O)N(C)C1CCCCC1	7%	-2%	-2%	-1%	14%	-2.1%	-2%	/
Cc1ccc(CS(=O)(=O)CCC(=O)NCCN2CCCC2)cc1	-8%	2%	6%	-1%	10%	0.6%	24%	/
CNS(=O)(=O)c1cccc(C(=O)OCC(=O)N2c3ccccc3CC2C)c1 (configuration not stated)	1%	-2%	-14%	-27%	-1%	1.3%	-6%[46.1 µM]	22%
CSc1nc2ccc(NC(=O)C3CC(=O)N(Cc4ccccc4)C3)cc2s1 (configuration not stated)	?	0%	-7%	-4%	26%	-9.5%	-26%[46.1 µM]	-3%
Cc1ccnc(N2CCC(C(=O)NCc3ccccc3F)CC2)n1	/	7%	0%	2%	-12%	/	2%[46.1 µM]	-2%
CC(=O)N1CC[n+]2c(-c3ccc(Cl)cc3)csc21	-16%	17%	-68%	-16%	-1%	?	-2%	?
Cn1c(=O)c2[nH]c(CCCc3ccc([N+](=O)[O-])cc3)nc2n(C)c1=O	2%	0%	/	0%	3%	9.7%	?	?
O=C(c1ccc(F)cc1)N1CCN(S(=O)(=O)c2ccc(Br)cc2)CC1	/	2%	-3%	/	3%	/	/	?
C#CCOCCOCCOCCNc1nc(N2CCN(C(=O)[C@H]([C@@H](C)O)n3cc(CCCCN)nn3)CC2)nc(N2CCN(C(=O)[C@H](C)n3cc(CCCN=C(N)N)nn3)CC2)n1	5%	-13%	-7%	-5%	-8%	-1.9%	-16%	0%
COc1ccc(NC(=O)CSc2ccc3nnc(CCNC(=O)c4ccccc4)n3n2)cc1OC	/	-9%	0%	8%	-4%	/	22%	-10%
CCc1ccc(Nc2nnc(-c3cc4cc(OC)ccc4oc3=O)s2)cc1	-16%	/	/	-1%[46.1 µM]	/	3.0%	/	15%
COc1ccc(NC(=O)Nc2ccccc2F)cc1Cl	/	-6%	0%	?	11%	/	?	34%[activator]
Cc1ccc(-n2ncc3c(N4CCN(C)CC4)ncnc32)cc1	-4%	/	/	20%[46.1 µM]	/	0.6%	/	?
CCOC(=O)C1CCN(C(=O)CNC(=O)OC(C)(C)C)CC1	-1%	-7%	9%	6%	1%	2.9%	?	-4%
O=C(CCc1ccccc1)NC(NC(=S)Nc1ccc(Br)cc1)C(Cl)(Cl)Cl (configuration not stated)	10µM*	4%	-2%	?	3%	3.7%	?	/
